Assay outcomes deposited in PubChem by Broad Institute.
T. gondii HeLa – Toxoplasma gondii ME49Luc growth in HeLa cells, luciferase, no IFN-y, primary screen (AID 1259421). hit rate 9.6% among 6,400. T. gondii ME49Luc in HeLa, luciferase, 72 h, no IFN-y; active compounds read low; reference of the scale and settings of repeat entries not given here; many of its hits are not listed in these tables. activity change, negative = inhibition, %;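 active means activity change below -70%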;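 further: about 20 µM from a 10 mM stock diluted 500-fold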
An asterisk follows results filed as active; & = joins results of further samples.

Molecule	T. gondii HeLa
COP(=O)(OC)OC=C(Cl)Cl	17
CC(C)NCC(O)c1ccc([N+](=O)[O-])cc1 (centres undefined)	8
COc1cc2c(cc1OC)[C@@H]1C(=O)c3ccc(OC)c(CC=C(C)C)c3O[C@@H]1CO2	6
COC(=O)CN1CN(c2ccccc2)C2(CCN(Cc3cccc4ccccc34)CC2)C1=O	-6
O[C@@H]1CCCC[C@H]1N1CCC(c2ccccc2)CC1	15
C#Cc1cccc2c1c(C(=O)c1ccc(Cn3c(C)nc4cnccc43)c(F)c1)cn2C(=O)N(C)C	-8
CCCCCCC(=O)O[C@H]1CC[C@H]2[C@@H]3CCC4=CC(=O)CC[C@]4(C)[C@H]3CC[C@]12C	-77*
C[C@]12CC[C@@H]3c4ccc(OC(=O)N(CCCl)CCCl)cc4CC[C@H]3[C@@H]1CC[C@@H]2OP(=O)(O)O	11
O=C1CSC(c2ccccc2Cl)c2cc(Cl)ccc2N1 (centres undefined)	12&9
CC(=O)Nc1ccc(OC[C@](C)(O)C(=O)Nc2ccc([N+](=O)[O-])c(C(F)(F)F)c2)cc1	1
C[C@]12CCC3[C@@H](CC[C@@]45O[C@@H]4C(=O)C(C#N)C[C@]35C)C1CC[C@@H]2O (some centres undefined)	-74*
OCC(O)[C@H]1O[C@@H]2O[C@H](C(Cl)(Cl)Cl)O[C@@H]2[C@H]1O (some centres undefined)	14
COc1ccc(OC)c(C(O)C(C)N)c1 (centres undefined)	6&3
CC[C@@H]1[C@@H](C)O[C@@](O)([C@@H](C)[C@H](O)[C@H](C)[C@H]2OC(=O)/C=C/C=C/[C@H](C)[C@H]([C@@H](C)[C@@H](O)[C@H](C)[C@@]3(O)C[C@@H](O[C@H]4C[C@H](O)[C@H](O)[C@H](C)O4)[C@H](CC)[C@@H](C)O3)OC(=O)/C=C/C=C/[C@H]2C)C[C@H]1O[C@H]1C[C@H](O)[C@H](O)[C@H](C)O1	-84*
CCN[C@@H](C)Cc1cccc(C(F)(F)F)c1	4
O=C1NC(=S)NC(=O)C1C(=O)Nc1ccccc1	57
N#CC(C#N)=NNc1cccc(Cl)c1	10
CCCC(C)(COC(N)=O)COC(N)=O	8
CCCN1CCO[C@@H]2c3cc(O)ccc3OC[C@H]21	2&7
CCCCC1(C2CCCC2)Cc2cc(OCCCC(=O)O)c(Cl)c(Cl)c2C1=O (centres undefined)	-7
CN(C)CCNc1nc2cc(O)ccc2c2c1C(=O)c1ccccc1-2	-86*
C=C1CCC2(O)C3Cc4ccc(O)c5c4C2(CCN3CC2CC2)C1O5 (centres undefined)	12
COC(=O)C[C@@](O)(CCC(C)(C)O)C(=O)O[C@@H]1C(OC)=C[C@]23CCCN2CCc2cc4c(cc2[C@@H]13)OCO4	-83*
CCOc1cc(C=O)ccc1O	6
O=C1NCN(c2ccccc2)C12CCN(CCCOc1ccc(F)cc1)CC2	-5
O=C(O)/C=C/CO	2
O=P(O)(NCCCl)NCCCl	12
CCOc1ccccc1-n1c(C(C)N2CCN(C(=O)COc3ccc(Cl)cc3)CC2)nc2ccccc2c1=O (centres undefined)	14
CC(C)(C)NCC(O)c1ccccc1Cl (centres undefined)	14
CCCN1CCC[C@@H]2Cc3[nH]ncc3C[C@H]21	10
COc1ccc2c(c1O)-c1cc(O)cc3c1[C@@H](C2)N(C)CC3	-6
CC(C(=O)OC1CC2CCC(C1)N2C)c1ccc(Br)cc1 (centres undefined)	1&-1
CC(C)N(CCNC(=O)CN1CCCC1=O)C(C)C	26
O=C(O[C@H]1CN2CCC1CC2)N(Cc1cc(F)c(F)c(F)c1)c1cccc(F)c1	17
CCN1C[C@]2(OC(=O)c3ccccc3NC(C)=O)CCC(OC)[C@]34C1[C@H](CC23)[C@@]1(O)CC(OC)[C@H]2CC4C1(O)[C@H]2OC (some centres undefined)	-6
c1cc2c(c(N3CCNCC3)c1)OCCO2	0
O=Cc1cn(Cc2ccc(Cl)cc2)c2ccccc12	3
CCCCCCC(C)(C)c1ccc(C2CC(O)CCC2CCCO)c(O)c1 (centres undefined)	0
C[C@](O)(COc1ccc(C#N)cc1)C(=O)Nc1ccc(C#N)c(C(F)(F)F)c1	3
CN1CCN(C(=O)OC2c3nccnc3C(=O)N2c2ccc(Cl)cn2)CC1 (centres undefined)	1
CCN1C[C@]2(COC)CCC(OC)[C@@]34C5C[C@]6(O)[C@H](OC(=O)c7ccc(OC)cc7)C5[C@@](OC(C)=O)(C[C@H]6OC)[C@@H]([C@H](OC)C23)[C@@H]14 (some centres undefined)	-1
O=P1(N(CCCl)CCCl)NCCCO1 (centres undefined)	3&14
C[C@@H](N)Cc1cnc[nH]1	18
O=[N+]([O-])c1ccc(O)c([N+](=O)[O-])c1	14&-2
CCOC(=O)c1ncn2c1CN(C)C(=O)c1cc(N=[N+]=[N-])ccc1-2	8&8
CCOC(=O)c1ncn2c1[C@@H]1CCCN1C(=O)c1cc(OC)ccc1-2	1
CS(=O)CCCCN=C=S (centres undefined)	7
NCc1cccnc1	7
C#CC1(O)CCC2C3CCC4=CC(=O)CCC4(C)C3CCC21C (centres undefined)	-18&-6
C[C@]12COC(=O)C[C@@H]1CC[C@@H]1[C@@H]2CC[C@@]2(C)[C@H]1CC[C@]2(C)O	10

(listing goes on)
Molecule	T. gondii HeLa
NCC1(CC(=O)O)CCCCC1	4
CS(=O)(=O)Nc1ccc(Cc2noc(-c3ccc4[nH]cc(CCN)c4c3)n2)cc1	0
C#CCN1C(C)=C(C(=O)CCO)C(c2cccc(-n3oo3)c2)C(C(=O)OC)=C1C (centres undefined)	12
C=CCN1C[C@H](C)N([C@H](c2ccc(C(=O)N(CC)CC)cc2)c2cccc(O)c2)C[C@H]1C	2&8
CC(=O)O[C@@H]1C[C@@]2(C)[C@H](c3ccoc3)C[C@H]3O[C@]32[C@]2(C)C(=O)C(=O)C3C(C)(C)C(=O)C=C[C@]3(C)C12 (some centres undefined)	-90*
CCOC(=O)c1ncc2[nH]c3ccc(OCc4ccccc4)cc3c2c1COC	17&-1
O=[N+]([O-])c1ccc([As](=O)(O)O)cc1	16
COC(=O)/C=C/C(=O)N[C@@H]1CC[C@@]2(O)[C@H]3Cc4ccc(O)c5c4[C@@]2(CCN3CC2CC2)[C@H]1O5	17
C[C@H]1C[C@@H](O)[C@]2(O)[C@@]13CC(=O)OC[C@@]2(C)[C@](C)(O)C(=O)C3	5
Oc1ccc(Cl)cc1	32&-25
CC1(C)C(=O)N(c2ccc(C#N)c(C(F)(F)F)c2)C(=O)N1CCCCO	4
C[C@]12CC[C@H](O)C[C@H]1CC[C@@H]1[C@@H]2CC[C@]2(C)[C@@H](c3ccc(=O)oc3)C[C@H]3OC132 (some centres undefined)	-78*
Oc1ccc2c3c1O[C@H]1c4c(c5ccccc5n4Cc4ccccc4)C[C@@]4(O)C(C2)N(CC2CC2)CC[C@]314	20
CC(C)(c1ccc(OCC2CO2)cc1)c1ccc(OCC2CO2)cc1 (centres undefined)	10
NC(=O)C[S@@](=O)C(c1ccccc1)c1ccccc1	3
CCNC(=O)[C@H]1O[C@@H](n2cnc3c(N)ncnc32)[C@H](O)[C@@H]1O	-4
COc1ccc(/C=C/c2cc(O)cc(O)c2)cc1	-11
CC(=O)OCC1=C(C(=O)O)N2C(=O)[C@@H](N)[C@H]2SC1	13
COC(C)(C)CCC[C@H](C)C/C=C/C(C)=C/C(=O)OC(C)C	17
CC[C@@]1(O)C[C@H](O)c2c(cc3c(c2O)C(=O)c2c(O)ccc(O)c2C3=O)[C@H]1C(=O)OC	-4
C=CCN1C[C@H](C)N([C@@H](c2ccccc2)c2ccc(C(=O)N(CC)CC)cc2)C[C@H]1C	1
C[C@H]1C(=O)O[C@@H]2CCN3CC=C(COC(=O)[C@](C)(O)[C@]1(C)O)[C@H]23	5
CC(C)c1ccc2c(c1O)CC[C@H]1C3=C(CC[C@]21C)C(=O)OC3	1
COC1=CC(=O)OC(/C=C/c2ccccc2)C1 (centres undefined)	10
CC(N)Cn1ccc2cc(F)c(Cl)cc21 (centres undefined)	5

5 entries picked at random from those above:
Molecule	T. gondii HeLa
COC1=CC(=O)OC(/C=C/c2ccccc2)C1 (centres undefined)	10
NCC1(CC(=O)O)CCCCC1	4
C#CCN1C(C)=C(C(=O)CCO)C(c2cccc(-n3oo3)c2)C(C(=O)OC)=C1C (centres undefined)	12
Oc1ccc(Cl)cc1	32&-25
CCNC(=O)[C@H]1O[C@@H](n2cnc3c(N)ncnc32)[C@H](O)[C@@H]1O	-4

More compounds:
Molecule	T. gondii HeLa
CC(=O)[C@H]1CC[C@H]2[C@@H]3CC[C@H]4C[C@H](O)CC[C@]4(C)[C@H]3CC[C@]12C	2
C[C@@H]1O[C@@H](O[C@H]2CC[C@]3(C=O)C4CC[C@]5(C)[C@@H](C6=CC(=O)OC6)CC[C@]5(O)C4CC[C@]3(O)C2)[C@H](O)[C@H](O)[C@H]1O (some centres undefined)	-76*
C/C(=C\c1csc(C)n1)[C@@H]1C[C@@H]2O[C@@H]2CCC[C@H](C)[C@H](O)[C@@H](C)C(=O)C(C)(C)[C@@H](O)CC(=O)O1	-69
COc1cc([C@@H]2c3cc4c(cc3[C@H](OC(C)=O)[C@H]3COC(=O)[C@H]23)OCO4)cc(OC)c1OC	-82*
CCNC1(c2cccs2)CCCCC1=O (centres undefined)	1

Exported as labelled records: part of the list above.
> C[C@@H]1O[C@@H](O[C@H]2CC[C@]3(C=O)C4CC[C@]5(C)[C@@H](C6=CC(=O)OC6)CC[C@]5(O)C4CC[C@]3(O)C2)[C@H](O)[C@H](O)[C@H]1O (some centres undefined)
  T. gondii HeLa: -76*
> COc1cc([C@@H]2c3cc4c(cc3[C@H](OC(C)=O)[C@H]3COC(=O)[C@H]23)OCO4)cc(OC)c1OC
  T. gondii HeLa: -82*
> CC(=O)[C@H]1CC[C@H]2[C@@H]3CC[C@H]4C[C@H](O)CC[C@]4(C)[C@H]3CC[C@]12C
  T. gondii HeLa: 2

Some of the compounds tested; rates above refer to the full screens.
